AmpC inh no det: Promiscuous and Specific Inhibitors of AmpC Beta-Lactamase (assay without detergent); 1.8% of 71,000 active; P00811; Potency, µM (highest dose often 28.7 µM), inactives show at the top dose activity change, negative = inhibition; AmpC nitrocefin hydrolysis, absorbance 480 nm, no detergent; potencies from a single point are estimates; active = falling curve, for most hits resting on a single point; inconclusive = weak or doubtful change; inactive = flat or rising curve; also: % of control where 0% means no effect; about half of the hits show no inhibition at the top dose; a quarter of the inactives give rising signals
Target sequence (P00811 whole entry, looked up): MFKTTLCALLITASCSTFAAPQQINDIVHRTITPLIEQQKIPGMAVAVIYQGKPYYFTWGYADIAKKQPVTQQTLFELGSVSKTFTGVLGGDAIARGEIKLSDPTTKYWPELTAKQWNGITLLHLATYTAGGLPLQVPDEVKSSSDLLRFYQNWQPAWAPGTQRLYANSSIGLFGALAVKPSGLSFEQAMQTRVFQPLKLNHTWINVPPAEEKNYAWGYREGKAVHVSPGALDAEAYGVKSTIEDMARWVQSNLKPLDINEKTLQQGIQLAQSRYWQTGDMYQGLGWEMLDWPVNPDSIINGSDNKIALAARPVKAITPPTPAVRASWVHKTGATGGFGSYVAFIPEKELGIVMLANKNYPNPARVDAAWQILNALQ
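AmpC, 20 mM phosphate pH 7.0; 15 min cpd preinc, RT; start with nitrocefin (800 uM stock); A480 kinetic read, 20 s intervals, 4 min. No-enzyme wells = negative control.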
Starred values were filed as active, the others as inactive; & = joins results of further samples; [ ] = another dose, or the depositor's remark. Potency is read from the fitted curve at half-maximal effect. The list is partial; the hit share may differ from the screen's.

canonical_smiles	AmpC inh no det
CCCC12CN3CC(C)(CN(C1)C3c1ccc3c(c1)OCO3)C2=O (centres undefined)	18.4%
CCCn1c(C)nc2c(N3CCC(N4CCN(C)CC4)CC3)nc(C)nc21	12.5%
Cc1cccc(CC2CC(=O)N(C3CCCCC3)C2=O)c1 (centres undefined)	13.5%
CC1CN(C(=O)C(C)N2C(=O)c3ccccc3C2=O)CC(C)O1 (centres undefined)	-1.0%
CCO/C(C)=N/n1c2nc3ccccc3nc2c2c(=O)n(C3CCCC3)c(C)nc21	78.6%
[O-][N+](CCO)(CCO)c1ncnc2nc[nH]c12	-11.6%[5.75 µM]
CCOc1cc2c(C#N)c(N3CCOCC3)nc(N)c2c(N)n1	0.6%
c1cnn(-c2cc(N3CCOCC3)ncn2)c1	-3.9%
C1CCN(c2nc(N3CCCC3)nc(N3CCNCC3)n2)C1	-0.3%
CC(=O)c1cc(CN2C(=O)c3ccccc3C2=O)cs1	-0.2%
Cc1cc(O)c(C(=O)c2ccccc2C(=O)O)cc1C	-14.0%
COc1cc(OC)c(C2=NOC(C(=O)Nc3c(C)nn(CC(=O)N4CCCC4)c3C)C2)cc1Cl (centres undefined)	-7.8%
COc1ccc(CCNC(=O)c2c(N)n(CCN3CCOCC3)c3nc4ccccc4nc23)cc1	173.0%
CCCCN1CCCCC1C(=O)Nc1c(C)cc(C)cc1C (centres undefined)	-15.4%
CC(C)OC(=O)c1nnc(Cc2ccc(Cl)cc2)o1	25.9%
Cc1oc(-c2ccc(Cl)cc2)nc1CN1CCCC(C(=O)NCc2ccco2)C1 (centres undefined)	128.3%
COC(=O)Cc1ccc2c3ccccc3n(C)c2c1	53.6%
S=c1[nH]nc(COc2ccccc2)n1C1CCCCC1	-7.1%
O=C(NCCc1ccccc1)c1c(O)c2cccc3c2n(c1=O)CC3	36.4%
O=C(NCCc1ccccc1)C1CCN(S(=O)(=O)c2cccs2)CC1	5.7%

An excerpt from further up, for reference:
canonical_smiles	AmpC inh no det
S=c1[nH]nc(COc2ccccc2)n1C1CCCCC1	-7.1%
O=C(NCCc1ccccc1)c1c(O)c2cccc3c2n(c1=O)CC3	36.4%
O=C(NCCc1ccccc1)C1CCN(S(=O)(=O)c2cccs2)CC1	5.7%

(listing goes on)
canonical_smiles	AmpC inh no det
COc1ccc(CCNC(=O)Cn2c(=O)n(Cc3ccco3)c(=O)c3ccc(Cl)cc32)cc1OC	61.1%
COc1ccc(NC(=O)N(CCCN(C)C)Cc2cc3cc(OC)ccc3[nH]c2=O)cc1	22.4%
CC(C)N1CCN(c2ccc(OC[C@@H]3CO[C@@](Cn4cncn4)(c4ccc(Cl)cc4Cl)O3)cc2)CC1	90.1%[12.8 µM]
CCC1S/C(=C(\C#N)C(N)=O)N(c2ccc(F)cc2)C1=O (centres undefined)	-1.8%
CC1CCCC(C)N1C(=O)Cn1c(SCC(=O)Nc2ccc3c(c2)OCO3)nc2ccccc21 (centres undefined)	19.0%
CCOC(=O)CSc1ncnc2c1cnn2-c1ccccc1	10.3%
CN(C)C(=O)N1CCN(C(=O)N(C)C)CC1	-2.9%
O=C(CN1CCOCC1)NCCNC(=O)CN1CCOCC1	-3.4%
O=Nc1c2nc3ccccc3n(O)c-2c2ccccc12	4.1%
Cc1ccc(S(=O)(=O)Nc2cc(C(=O)O)ccc2N2CCCCC2)cc1	-11.9%
Cc1ccc(S(=O)(=O)Cc2ccc(C(=O)N3CCN(c4ccccn4)CC3)o2)cc1	55.8%
CC1Cc2ccccc2N1C(=O)c1ccc2snnc2c1 (centres undefined)	-2.0%
CCOc1cc(NC(=O)c2ccco2)c(OCC)cc1NC(=O)CCc1ccccc1OC	90.0%
NC1(C(=O)OCc2ccccc2)CCCC1	-0.1%[5.75 µM]
CC[C@]1(O)C[C@@H]2CN(CCc3c([nH]c4ccccc34)[C@](C(=O)OC)(c3cc4c(cc3OC)N(C)[C@H]3[C@](O)(C(=O)OC)[C@@H](C(=O)OC)[C@@]5(CC)C=CCN6CC[C@@]43[C@@H]65)C2)C1	155.1%
CC1CCCCN1S(=O)(=O)c1coc(C(N)=O)c1 (centres undefined)	0.9%
COc1cc(NC(=O)CCCC(=O)OCC(F)(F)C(F)F)nc(OC)n1	14.2%
COC(=O)C1=C(C)NC(C)=C(C(=O)OC)C1c1cc2ccc(C)cc2[nH]c1=O	46.1%
C=CCn1c(O)c(C(CC)=Nc2cc(OC)ccc2OC)c(=O)[nH]c1=O	12.5%
CCOC(=O)c1ccc(NC(=O)CSc2nnc(C)n2-c2ccccc2)cc1	76.3%
S=c1[nH]nc(-c2ccccc2Cl)n1CC1CCCO1 (centres undefined)	8.0%
CCOc1ccc(NC(=O)CCN2CCN(c3ccccc3)CC2)cc1	6.4%
Cc1noc(/C=C/N(C)C)c1S(=O)(=O)N1CCCC(C(=O)NCc2ccco2)C1 (centres undefined)	84.1%
Cc1cc(C)nc(Nc2ccc(N3CCCC3)cc2)n1	14.7%
CCCCCOC(=O)C1[C@H]2C(=O)N(CCCOC)C[C@]23C=C[C@H]1O3 (some centres undefined)	1.1%
CCOC(=O)N1CCc2c(sc3c2C(=O)NC(c2ccccc2)N3)C1 (centres undefined)	89.8%
CCN1CCCC1CNC(=O)c1nn(-c2ccc(C)cc2)c(=O)c2c1c1ccccc1n2C (centres undefined)	49.0%
CCOc1ccc(C(C)=O)cc1CSc1nnc(-c2ccoc2C)n1N	12.3%
Cc1nccc2[nH]c(=O)c(C(=O)NC3CCN(Cc4ccccc4)CC3)cc12	1.1%
Cc1cc(/C=N/n2cnnc2)c(C)n1-c1ccc2ncccc2c1	49.7%
O=C(O)c1cccc(CN2C(=O)CSC2=O)c1	0.5%
CC(C)CN(C(=O)c1ccc(=O)n(C)n1)c1nc2ccccc2s1	113.7%
CCOC(=O)C1CCCN(S(=O)(=O)c2cc(Br)cc3c2N(C(=O)C2CC2)CC3)C1 (centres undefined)	109.9%
COc1ccc(N2CCN(C(=O)CCN3C(=O)c4ccccc4S3(=O)=O)CC2)cc1	51.1%
CC(C)C(C)C	-4.5%
Cc1cccc2cc(CN(CC3CCCO3)C(=O)c3ccncc3)c(=O)[nH]c12 (centres undefined)	3.1%
CCCCc1c(O)nc2n(c1=O)CCS2	-0.5%
COCCCNC(=O)c1cc2c(=O)n3cccc(C)c3nc2n(C(C)C)c1=N	-14.2%
CCOC(=O)C1CCCN(c2c(NCCN(C)Cc3ccccc3)c(=O)c2=O)C1 (centres undefined)	3.98µM*[single pt active]
O=C1OC(=O)c2c(Br)c(Br)c(Br)c(Br)c21	-6.0%
O=C(OC1CCOC1=O)c1ccc(-c2nc3ccccc3s2)s1 (centres undefined)	32.1%
C=C1CC[C@@H](O)C/C1=C/C=C1\CCC[C@]2(C)[C@@H]1CC[C@H]2[C@@H](C)CCCC(C)C	33.5%
CCC(=O)N1CCc2cc(S(=O)(=O)N3CCN(c4ccccn4)CC3)ccc21	91.2%
COCCCNC(=O)Cn1cc2c(n1)CCCCC2	-0.5%
COCCNc1ncnc2nc[nH]c12	-1.0%
Cc1ccc(CN2CCNC(=O)C2CC(=O)O)cc1 (centres undefined)	-12.0%
COc1cccc(Nc2ncc3ncc(=O)n(C[C@H]4CCCO4)c3n2)c1	53.8%
COC(=O)[C@@]1(Cc2ccc(OC)cc2)[C@H]2c3cc(C(=O)N(C)C)n(CCSCCO)c3C[C@H]2CN1C(=O)c1ccccc1	172.2%
COc1ccc2c(c1)c1ncnc(N3CCN(Cc4ccc5c(c4)OCO5)CC3)c1n2C	114.2%
Cn1cc(/C(Cc2ccccc2)=N\O)c2ccccc21	-13.8%

Other entries follow.
canonical_smiles	AmpC inh no det
CN(CCCNC(=O)C1CCCN(S(=O)(=O)c2cnc[nH]2)C1)c1ccccc1 (centres undefined)	21.4%
COc1ccc(OCC(=O)Nc2cccc(OC)c2)cc1	-3.9%
C=CCSc1nc2c(N)ncnc2n1[C@@H]1O[C@H](CO)[C@@H](O)[C@@H]1O	-12.4%[5.75 µM]
N#C/C(N)=C(/N)C#N	-3.1%
COc1cc(C2NC(=O)NC(C)=C2C(=O)OC2CCCC(C)C2)ccc1O (centres undefined)	38.1%
c1cc(CN2CCC3(CCNCC3)CC2)ccn1	4.1%
CCc1cc2c(=O)n(Cc3ccco3)c(SCc3c(C)noc3C)nc2s1	28.6%
NC(=O)C1(N2CCCCC2)CCN(CC(=O)Nc2ccccc2-c2ccccc2)CC1	90.6%
COc1ccc(OC)c(C(=O)COC(=O)c2cc(C)oc2C)c1	11.5%
Cc1cc(C)n(-c2ncnc3c2oc2ccccc23)n1	19.9%
COCCNC(=O)c1cc(Br)ccc1Cl	-11.8%
C=C(C)C1Cc2nc(N)nc(C)c2C1 (centres undefined)	4.1%
Cc1occc1-c1nnc(SCc2nc3ccccc3c(=O)n2CC#N)n1C	12.3%
Nn1c(SCC(=O)Nc2ccc(F)cc2)nnc1-c1ccccn1	-16.9%
CC(C)Cn1c(-c2cccs2)nc2nc3ccccc3nc21	51.9%
O=C(Cn1ncc2ccsc2c1=O)N1CCC2(CC1)OCCO2	-20.0%
O=C(CSc1ncc(-c2ccc(F)cc2)[nH]1)N1CCCCC1	7.0%
CCN(CC)CCCN(Cc1cc2cc(OC)ccc2[nH]c1=O)C(=O)Nc1ccccc1	19.5%
Cc1cc2c(SCc3ccccc3Cl)nc(N)nc2nc1C	33.3%[5.75 µM]
Cc1ccc2c(COC(=O)c3n[nH]c4ccccc34)cc(=O)oc2c1	-4.7%
COc1cccc(Oc2c(C)oc3c(CN4CCOCC4)c(O)ccc3c2=O)c1	9.7%
COc1ccc(S(=O)(=O)c2c(N)n(Cc3ccco3)c3nc4ccccc4nc23)cc1	12.6µM*
CCSC(=N)N	-6.5%&-8.4%
COCCn1c(=O)c(CCc2ccccc2)nc2cnc(N3CCOCC3)nc21	47.4%
CCN1CCN(c2ncc(C(=O)Nc3c(F)cc(F)cc3Br)c3ccccc23)CC1	60.5%
CCN(CCCNC(=O)COc1cc(=O)n(C)c2ccccc12)c1ccccc1	104.3%
O=C1C2CCCN2C(c2cccc(Cl)c2)N1c1ccccn1 (centres undefined)	20.0%
c1nc(NCCN2CCOCC2)c2cc(-c3ccoc3)ccc2n1	45.8%
C=C1C(=O)O[C@@H]2[C@H]3O[C@]3(C)CCC=C(C)CC[C@@H]12	10.0%&19.3%
O=C(Cc1c(F)c(F)c(F)c(F)c1F)OC12CC3CC(C1)C(=O)C(C3)C2	36.9%
CCN(c1ccccc1)S(=O)(=O)c1ccc(C(=O)Nc2nnc(COC)o2)cc1	-3.0%
C1COC1	-4.6%
CCOC(=O)c1cnn(-c2nc(SC)nc3sc4c(c23)CCC4)c1N	-19.5%
O=C(O)c1[nH]nc2c1COc1ccccc1-2	-10.5%
CC(=O)C1=C(O)C(=O)N(CO)C1c1ccccc1F (centres undefined)	-5.5%
CN(C)S(=O)(=O)N1CCN(CC(=O)Nc2cc(Cl)ccc2Cl)CC1	80.9%
CCC1(CC)NC(=O)N(CC(=O)Nc2sc3c(c2C(N)=O)CCC3)C1=O	-2.7%
CC(=O)Nc1ccc(S(=O)(=O)c2c(N)n(CCN3CCOCC3)c3nc4ccccc4nc23)cc1	58.2%
CCOC(=O)c1cc2sccc2n1CC(=O)OC(C)C	24.3%
O=C(NCCCn1ccnc1)c1ccncc1	-0.4%
Cc1cc(C)nc(NC(=O)Nc2ccccc2C(F)(F)F)n1	31.4%
COCC(=O)N1CCC2(CC1)CN(c1cccc(-c3ccccc3)c1)C2	181.0%
CS(=O)(=O)N(CC(=O)N1CCc2ccccc2C1)c1ccc2c(c1)OCO2	33.4%
NCCC[C@@H](CC(=O)N[C@@H]1CCCC[C@H]1C(=O)N[C@H](CC(=O)N[C@@H](CCC(=O)O)CC(=O)O)Cc1c[nH]c2ccccc12)NC(=O)C[C@H](Cc1c[nH]c2ccccc12)NC(=O)[C@@H]1CCCC[C@H]1N	161.3%
CCOC(=O)n1c(=O)oc2cc(S(=O)(=O)N3CCOCC3)ccc21	-5.6%
COC(=O)c1[nH]c2ccc(C)cc2c1NS(=O)(=O)c1ccc(F)c(C)c1	16.4%
CC(=O)Nc1nc(-c2ccc(Br)s2)cs1	12.6µM*
CCOc1ccc2c(c1)sc(=NC(=O)C1CC1)n2C	30.7%
CCCS(=O)(=O)N1CCC(C(=O)NCCN(C)Cc2ccccc2)CC1	-5.8%
CCOC(=O)N1CCC(NC(=O)C2CCCN(C(=O)N3CCOc4ccccc43)C2)CC1 (centres undefined)	61.2%

(list continues)
canonical_smiles	AmpC inh no det
Cc1cc(NC(=O)CSc2nnnn2C2CCCC2)no1	-13.1%
CCC(NS(=O)(=O)c1c(C)[nH]c(=O)[nH]c1=O)C12CC3CC(CC(C3)C1)C2 (centres undefined)	-7.0%
CCn1cnc2c1c(=O)n(Cc1nnc3n1-c1ccccc1SC3)c(=O)n2Cc1ccccc1	140.6%
Oc1ccc2c3c1O[C@H]1c4[nH]c5ccccc5c4C[C@]4(O)[C@H](C2)N(CC2CC2)CC[C@@]314	31.8%&11.6%
Cc1cccc(C)c1NC(=O)C[N+](C)(C)C	55.3%&3.1%

From PubChem BioAssay
